Assay outcomes: PubChem BioAssay, National Center for Advancing Translational Sciences (NCATS)
gsp agonist = qHTS for Agonist of gsp, the Etiologic Mutation Responsible for Fibrous Dysplasia/McCune-Albright Syndrome: qHTS; gsp mutant cells, cAMP HTRF, 30 min; control for the full effect not named in the record; Potency, µM (top dose mostly 76.9 µM), without a hit: at the top dose activation (cAMP increase), hits mostly activators; hit rate 0.13% among 340,000; AID 624287, 2012; active = well fitted activation curve with a large enough effect; inconclusive = small, poorly fitted or top-dose-only effect, or another doubt; inactive = no such curve, though single readings can be large or run the other way; cell line not stated here;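 note: phosphodiesterase inhibitor Ro 20-1724 added with compounds to block cAMP breakdown; potency is the fitted concentration of half-maximal effect; nearly all actives have a fitted effect of over 60% in size; about a fifth of the inactives were tested at one dose only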
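Cells stably selected in G418 were plated at 2000/well, grown 16-24 hr, then given compounds in DMSO with the PDE inhibitor […] (300 uM solution added) for 30 min at 37C; cAMP was read by HTRF.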
PINK1 expr mod = A Quantitative High throughput Screen to Identify Chemical Modulators of PINK1 Expression; PINK1 immunofluorescence, high-content cytometry, 24 h; Potency, µM (top dose mostly 76.6 µM), inactives show top-dose activation (PINK1 increase), hits mostly activators; hit rate 0.2% among 410,000; active = well fitted activation curve with a large enough effect; inconclusive = small, poorly fitted or top-dose-only effect; inactive = flat fitted curve, though single readings scatter; cell line not stated here;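 note: potency is the fitted concentration of half-maximal effect; % of control where 0% means no effect; nearly all actives have a fitted effect of over 65% in size; a mitochondrial uncoupler was the plate control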
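Stable cell line, 250 cells/well, 12 h attachment; compounds pinned at 5 concentrations, 24 h; CCCP control. Fixed with nuclear dye, primary antibodies 12 h at 10 degrees C, secondary plus cell stain; laser-scanning cytometer read.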
gsp antagonist = qHTS for Antagonists of gsp, the Etiologic Mutation Responsible for Fibrous Dysplasia/McCune-Albright Syndrome: qHTS; gsp-mutant cells, cAMP HTRF, 30 min; control for the full effect not named in the record; hit rate 0.4% among 340,000; Potency, µM (highest dose often 76.9 µM), inactives show at the highest dose activity change, negative = inhibition, actives largely listed as inhibitors; active = falling curve of any shape with a large fitted effect; inconclusive = falling curve, mostly with a smaller effect; inactive = flat or rising curve; cell line not stated here;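 note: intracellular cAMP measured with PDE inhibitor Ro 20-1724 present during compound exposure; potency is the fitted concentration of half-maximal effect; % is set by controls: 0 for no effect and ±100 for the full control effect; nearly all actives have a fitted effect of over 65% in size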
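Measurement of cellular cAMP by homogeneous time-resolved fluorescence following a 30 min compound exposure at 37C. The PDE inhibitor […] was present throughout; the assay buffer was DPBS with 0.05% BSA and 0.005% Tween 20.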
Menin-MLL FL inh = qHTS Assay for Inhibitors Targeting the Menin-MLL Interaction in MLL Related Leukemias: Competition With Fluorescein Labeled MLL-derived Peptide; Fluorescence polarization, fluorescein-MLL peptide displacement from menin; FP activity change, % at 61.4 µM; 290,000 tested, under 10 active; inconclusive = falling polarisation curve, or a change in total fluorescence; inactive = total fluorescence flat and polarisation flat or rising; no compound was filed as active; the % refers to the polarisation; negative = inhibition;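 note: % of control where 0% means no effect; inhibitors lower the polarisation; unlabelled MLL peptide was the positive control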
ClpP mod = qHTS Assay for Activators of ClpP. ATP-dependent Clp protease proteolytic subunit (Bacillus subtilis (strain 168)), P80244. purified B. subtilis ClpP, FRET peptide cleavage, 20 min. Potency, µM (titrated, usually from 57.5 µM), inactives show at the top dose activity change, negative = active. hit rate 1.9% among 340,000; active = well fitted falling curve with a large enough effect; inconclusive = small, poorly fitted or top-dose-only effect; inactive = no such curve, though single readings can be large or run the other way; note: potency is the fitted concentration of half-maximal effect; the source files actives as falling curves though it sought activators and does not explain the sign; nearly all actives have a fitted effect of over 65% in size; many hits overshoot -100%
Target sequence (P80244 whole entry, looked up): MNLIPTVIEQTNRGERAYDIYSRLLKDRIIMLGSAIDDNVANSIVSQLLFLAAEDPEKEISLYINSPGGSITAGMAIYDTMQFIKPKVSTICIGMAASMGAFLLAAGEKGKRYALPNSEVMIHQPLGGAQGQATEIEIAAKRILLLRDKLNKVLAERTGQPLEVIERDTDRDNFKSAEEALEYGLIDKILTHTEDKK
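ClpP 10 microg/mL final, pH 8 Tris/KCl buffer with BSA, glycerol, Tween-20; compound pinned in; FRET-FV substrate; RT 20 min; Ex320/Em430; ΔFRET vs ADEP 5.8 microM, DMSO, no enzyme.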
D2 ag = Beta-Arrestin HTS for Positive Allosteric Modulators of the Human D2 Dopamine Receptor: Agonists | activation, % (concentration not given with the values) | DiscoveRx PathHunter D2 beta-arrestin, luminescence, 90 min; 100% = 57 uM dopamine signal | hit rate 0.084% among 360,000 | D(2) dopamine receptor (Homo sapiens), P14416; in the data active = activation above about 40%; inconclusive = about 15% to 40%; inactive = below about 15%; note: compound concentration not given in the record; the text of the record calls up to 30% inactive
Target sequence (P14416 whole entry, looked up): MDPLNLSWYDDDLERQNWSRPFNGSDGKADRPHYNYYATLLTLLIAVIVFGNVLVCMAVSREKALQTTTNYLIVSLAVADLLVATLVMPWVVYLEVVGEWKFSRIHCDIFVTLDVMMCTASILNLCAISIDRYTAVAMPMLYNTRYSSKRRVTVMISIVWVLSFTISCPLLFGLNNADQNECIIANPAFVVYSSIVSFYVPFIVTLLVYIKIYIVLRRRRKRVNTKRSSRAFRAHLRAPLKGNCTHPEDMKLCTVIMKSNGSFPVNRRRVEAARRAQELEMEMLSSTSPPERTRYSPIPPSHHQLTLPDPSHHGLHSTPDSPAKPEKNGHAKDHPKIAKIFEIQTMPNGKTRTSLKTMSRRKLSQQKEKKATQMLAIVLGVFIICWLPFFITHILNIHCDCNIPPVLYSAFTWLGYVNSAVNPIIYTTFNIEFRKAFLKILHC
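Agonist mode: compounds alone added to overnight-plated D2 PathHunter cells for 90 min at 37 C, with 57 uM final dopamine (EC100) defining full response. Beta-arrestin recruitment detected by chemiluminescent reagent, read after 1 h at ambient temperature.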
Sfp inh = qHTS Assay for Inhibitors of Bacillus subtilis Sfp phosphopantetheinyl transferase (PPTase). hit rate 3.5% among 310,000. Biochemical Sfp PPTase activity, qHTS. 4'-phosphopantetheinyl transferase ffp (Bacillus subtilis), Q9F4F7. Potency, µM, inactives show max response, negative = inhibition, usual class: inhibitors. AID 1490, 2009; active = well fitted inhibition curve with a large enough effect; inconclusive = small, poorly fitted or top-dose-only effect, or another doubt; inactive = no such curve, though single readings can be large or run the other way;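 note: the enzyme is Sfp with the accession as filed and its product quenches rhodamine fluorescence; potency is the fitted concentration of half-maximal effect; 0% = enzyme reaction without inhibitor and -100% = no enzyme wells; top concentration of the series not given in the record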
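Step 1, compound plus 15 nM Sfp-PPTase, 15 min, room temperature. Step 2, add rhodamine-CoA (5 uM) and BHQ-2-YbbR (12.5 uM). Step 3, read 525/598 nm fluorescence at 0 and 30 min.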
The depositor's hits bear a star; ? = inconclusive; / = not tested or not shown; & = joins results of further samples; [ ] = another dose, or the depositor's remark.

item	molecule	gsp agonist	PINK1 expr mod	gsp antagonist	Menin-MLL FL inh	ClpP mod	D2 ag	Sfp inh
1	CC(C(O)C12CC3CC(CC(C3)C1)C2)N1CCCCC1 (centres undefined)	-27%	-1.8%	9%	2.8	-0.9%	-1.2	0%
2	CC(=O)OC1C=CCC2C(=O)c3cccc(O)c3C(O)C12 (centres undefined)	0%	1.6%	4%	/	-13%	2.0	/
3	Cc1ccc(C(C[N+](=O)[O-])c2c(C)cc3ccccn23)cc1 (centres undefined)	20%	9.2%	2%	13	16%	-4.2	-25%
4	O=C(CCN=C1NS(=O)(=O)c2ccccc21)OCc1nnc(-c2ccc([N+](=O)[O-])cc2)o1	-21%	-0.8%	9%	/	28µM*	14	/
5	Fc1ccc(-c2ccnc3nc(N4CCOCC4)nn23)cc1	?	0.7%	13%	0.6	?	0.6	8%
6	O=[N+]([O-])c1cc(S(=O)(=O)N2CCCCCC2)ccc1F	11%	-2.1%	18%	-1.1	-1.4%	0.9	-2%
7	Cc1cnc(CNC(=O)C2CCC(=O)N(CCc3cccc(F)c3)C2)[nH]1 (centres undefined)	-1%	1.0%	10%	/	0.4%	-1.1	-2%
8	CCCC(=O)N1CCN(c2nc3c(OC)ccc(Cl)c3s2)CC1	-4%	1.5%	-4%	-1.4	1.9%	-0.9	-11%
9	O=C(Nc1ccnn1C1CCN(C2CCCC2)CC1)c1ccccc1Cl	-25%	-0.5%	13%	/	2.3%	-3.4	14%
10	COc1cc(C(=O)O/N=C(\N)c2ccccn2)cc(OC)c1OC	15%	1.0%	5%	-0.1	-0.4%	5.2	2%
11	O=C(NCCc1cccnc1)c1cc(COc2ccc(F)cc2F)on1	-13%	2.8%	1%	3.9	-4.3%	-2.0	-5%
12	CCCC(=O)Nc1ccc2nc(SCC(=O)N3CCCC3)sc2c1	-8%[15.4 µM]	-0.2%	-14%	0.9	/	-3.1	6%
13	COc1cccc(OCCn2c(C)c(/C=N/n3cnnc3)c3ccccc32)c1	?	5.7%	27%	0.5	0.7%	-0.1	12%
14	CC(C)(CC(=O)O)CC(=O)NCc1c(Cl)cccc1Sc1ccc(Cl)cc1	-52%[inhibitor]	-0.6%	-19%	-3.6	1.3%	-2.5	12%
15	CN(C)Cc1ccccc1COc1ccccc1	-3%[15.4 µM]	?	6%	2.9	1.1%	-3.1	4%
16	O=c1cc(NCc2ccccc2)nc2n1CCCS2	36%	1.3%	-8%	0.8	-0.6%	-2.0	7%
17	CC(NC(=O)COc1cc(=O)n(C)c2ccccc12)c1ccc2c(c1)OCCO2 (centres undefined)	?	/	-10%	0.4	5.1%	-1.9	0%
18	O=[N+]([O-])c1cccc(-c2ccc(SCc3ccccn3)nn2)c1	2%[15.4 µM]	0.0%	-18%	-5.1	/	1.3	-2%
19	Cc1ccc(S(=O)(=O)N2CCCC(C)C2)cc1 (centres undefined)	-14%	3.5%	-3%	0.3	1.4%	1.2	15%
20	COc1ccc(Cl)cc1-c1cc(C(=O)Nc2ccc(F)cc2)[nH]n1	/	7.2%	/	/	3.3%	11	/
21	CC1(C(=O)Nc2cccnc2)Cc2c(-c3cccc(C(F)(F)F)c3)ccnc2O1 (centres undefined)	/	1.7%	/	/	-4.5%	-2.1	/
22	Cc1nn(Cc2ccccc2Cl)c(C)c1NC(=O)/C=C/c1cnn(C)c1	-5%	1.3%[38.3 µM]	0%	2.8	-3.5%	-0.3	23%
23	O=C(c1cnc2n(c1=O)CCS2)N1CCCc2ccccc21	?	2.7%[38.3 µM]	8%	3.9	0.4%	-1.2	10%
24	CC(=O)OC1CC2C(C)(C)C(O)CC[C@@]2(C)C2CC[C@@]3(C)C(c4ccoc4)OC(=O)C4O[C@@]43[C@]12C (some centres undefined)	/	-0.5%	/	-3.5	/	/	-7%
25	CCc1nc2c(OCC(=O)c3ccc(Cl)cc3Cl)cccn2c1N(C)C(=O)COc1ccccc1	/	2.7%	/	/	0.5%	-2.6	/
26	C=CCN1C(=NC(=O)CCC)SC2CS(=O)(=O)CC21 (centres undefined)	-69%[inhibitor]	-0.7%	7%	-0.6	0.5%	-1.6	20%
27	Fc1ccc(-c2cc(C(F)(F)F)nc(-n3cc(Cl)cn3)n2)cc1	-23%	9.6%	-2%	-0.8	-13%	-4.3	11%
28	COc1cccc(C2C(C(=O)c3cc4cccc(OC)c4o3)=C(O)C(=O)N2c2cc(C)on2)c1OC (centres undefined)	?	-1.0%	-2%[15.4 µM]	7.8	-2.1%	-4.2	9%
29	CC(C)[C@H](NC(=O)[C@@H]1Cc2ccccc2CN1)C(=O)Nc1ccc2c(c1)OCCO2	6%	-0.8%	0%	/	-0.4%	-4.8	-4%
30	NC(=S)Nc1c(Cl)cccc1Cl	-15%	2.7%	9%	1.5	-0.9%	-5.0	14%
31	CNc1nc(Cl)c(SC)c(NCc2cccc(OC)c2)n1	-31%[inhibitor]	1.6%	-9%	4.8	/	15	5%
32	Cc1ccc(C)c(S(=O)(=O)NCc2ccc(C(=O)NCc3ccco3)cc2)c1	2%	-0.9%	-8%	-0.3	0.0%	-2.6	-12%
33	O=C(NC1CCCC1)c1c[nH]c2ccc(F)cc2c1=O	-24%	0.6%	-5%	1.9	-6.5%	0.5	2%
34	O=C(COc1ccc(Cl)cc1Br)NC(=O)NC1CCCC1	12%[15.4 µM]	3.4%	-16%	/	0.8%	14	/
35	CCN(C(=O)COC(=O)CNC(=O)c1ccc(Cl)cc1Cl)c1c(N)n(Cc2ccccc2)c(=O)[nH]c1=O	-25%	-0.9%	10%	/	-0.1%	-4.6	/
36	CCOC(=O)c1cnc2cc(C)ccn2c1=O	4%	4.1%	18%	/	?	-1.6	4%
37	COc1cc(Cl)cc(/C=C/c2ccc3cccc(O)c3n2)c1OC	-38%[inhibitor]	12%	-1%	0.4	/	6.7	9%
38	CC(C)OCCCNS(=O)(=O)c1ccc2c(c1)OCCO2	-19%	4.0%[38.3 µM]	-17%	0.0	0.7%	-2.2	13%
39	Nc1cc(=O)[nH]c(SCCSc2ccccc2F)n1	-4%	0.6%	1%	/	/	9.8	3%
40	Cc1cccc(N(C)C(=O)c2coc(=O)c3ccccc23)c1	-12%	0.5%	-14%	0.6	-2.4%	0.1	9%
41	CN=Cc1c(NC)nc2c(C)cccn2c1=O	-11%	-3.1%	12%	6.1	40µM*	-1.8	15%
42	CSc1ccc(CN(C)C(=O)CN2C(=O)NC3(CCCC3)C2=O)cc1	-23%	1.9%	-5%	/	-3.7%	1.9	/
43	O=C(CCNC(=O)c1ccco1)Nc1nc(-c2ccccc2)cs1	-17%[15.4 µM]	0.6%	-2%	/	0.7%	-1.0	/
44	CN(C)C(CNC(=O)CSc1nc2sc3c(c2c(=O)n1C)CCC3)c1ccccc1 (centres undefined)	-33%[inhibitor]	-3.6%	-5%	/	-1.7%	5.0	/
45	CC1CC(C)(C)NC(=S)N1CCCC(=O)N1CCN(c2ccc(F)cc2)CC1 (centres undefined)	4%[15.4 µM]	-0.5%	3%	3.0	-0.5%	-0.5	2%
46	Cc1ccc(S(=O)(=O)C2(C(=O)Nc3ccc(C(C)C)cc3)CC2)cc1	-17%[15.4 µM]	0.7%&4.5%	2%	0.8	-2.1%	0.1	23%
47	COc1cc(NS(=O)(=O)c2ccc(NC(=S)NC(=O)c3ccc(F)c(F)c3)cc2)nc(OC)n1	?	0.7%	?	/	1.1%	-6.0	5%
48	Cc1cccc(N)c1SC1CCCCC1O (centres undefined)	8%	3.0%	15%	5.4	-0.6%	-2.0	10%
49	O=C(c1ccc(-c2ccccc2Cl)o1)N1CCCC(C(F)(F)F)C1 (centres undefined)	24%	2.3%	-20%	/	-1.7%	-2.6	/
50	CNC(=O)NNC(=O)c1nc(-c2ccccc2)c(C)o1	19%[15.4 µM]	-0.9%	7%	-0.1	/	-1.8	-4%

Going on with the list:
item	molecule	gsp agonist	PINK1 expr mod	gsp antagonist	Menin-MLL FL inh	ClpP mod	D2 ag	Sfp inh
51	CS(=O)(=O)Nc1cccc(C2=NN(S(=O)(=O)c3ccccc3)C(c3ccco3)C2)c1 (centres undefined)	?	0.1%	-22%	0.8	-0.5%	-6.6	56µM*
52	Cc1[nH]c2ccccc2c1/C=C/C(=O)c1ccncc1	8%[15.4 µM]	3.4%	-1%	?	-15%	-7.3	?
53	N#Cc1c(N)nc2c3c(sc(=N)c2c1N)NC(=O)CC3c1c(F)cccc1Cl (centres undefined)	7%	5.1%	4%	10	-28%	0.6	?
54	COc1ccc(NC(=O)c2sc(=O)n(Cc3ccc4ccccc4c3)c2C)cc1OC	/	-0.9%	/	/	-1.2%	11	/
55	CS(=O)(=O)c1ccc(S(=O)(=O)N2CCC(CO)(CCCc3ccccc3)CC2)cc1	-5%	-0.3%	-9%	5.1	-0.7%	-2.7	11%
56	O=S(=O)(c1ccccc1)N1CCC2(CCN(Cc3nccs3)CC2)CC1	/	0.9%	/	-4.0	/	/	20%
57	Cc1ccc(C(=O)NCC(=O)Nc2ccncc2)s1	-16%	0.4%	10%	/	0.5%	-0.5	13%
